ClpP mod = qHTS Assay for Activators of ClpP; 340,000 tested, 1.9% active; purified B. subtilis ClpP, FRET peptide cleavage, 20 min; ATP-dependent Clp protease proteolytic subunit (Bacillus subtilis (strain 168)), P80244; Potency, µM (doses to about 57.5 µM), without a hit: at the highest dose activity change, negative = active; active = well fitted falling curve with a large enough effect; inconclusive = small, poorly fitted or top-dose-only effect; inactive = no such curve, though single readings can be large or run the other way; note: potency is the fitted concentration of half-maximal effect; the source files actives as falling curves though it sought activators and does not explain the sign; nearly all actives have a fitted effect of over 65% in size; many hits overshoot -100%
Target sequence (P80244 whole entry, looked up): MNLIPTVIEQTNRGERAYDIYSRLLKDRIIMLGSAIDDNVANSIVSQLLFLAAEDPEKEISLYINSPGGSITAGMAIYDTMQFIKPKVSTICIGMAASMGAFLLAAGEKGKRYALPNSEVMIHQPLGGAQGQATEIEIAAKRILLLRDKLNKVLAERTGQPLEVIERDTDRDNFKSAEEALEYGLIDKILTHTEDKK
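ClpP 10 microg/mL final, pH 8 Tris/KCl buffer with BSA, glycerol, Tween-20; compound pinned in; FRET-FV substrate; RT 20 min; Ex320/Em430; ΔFRET vs ADEP 5.8 microM, DMSO, no enzyme.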
TRPML1 agonist = human mucolipin-1 channel agonism. Q9GZU1. TRPML1-expressing cells, Ca2+ dye fluorescence, FDSS; host cell line not named in the record; reference of the full effect not given here. activation, % (no concentration beside the values). 410,000 tested, 0.12% active; in the data active = activation above about 50%; inconclusive = about 30% to 50%; inactive = below about 30%; note: 0% is about no effect; the text of the record puts the active cut at 80%
Target sequence (Q9GZU1 whole entry, looked up): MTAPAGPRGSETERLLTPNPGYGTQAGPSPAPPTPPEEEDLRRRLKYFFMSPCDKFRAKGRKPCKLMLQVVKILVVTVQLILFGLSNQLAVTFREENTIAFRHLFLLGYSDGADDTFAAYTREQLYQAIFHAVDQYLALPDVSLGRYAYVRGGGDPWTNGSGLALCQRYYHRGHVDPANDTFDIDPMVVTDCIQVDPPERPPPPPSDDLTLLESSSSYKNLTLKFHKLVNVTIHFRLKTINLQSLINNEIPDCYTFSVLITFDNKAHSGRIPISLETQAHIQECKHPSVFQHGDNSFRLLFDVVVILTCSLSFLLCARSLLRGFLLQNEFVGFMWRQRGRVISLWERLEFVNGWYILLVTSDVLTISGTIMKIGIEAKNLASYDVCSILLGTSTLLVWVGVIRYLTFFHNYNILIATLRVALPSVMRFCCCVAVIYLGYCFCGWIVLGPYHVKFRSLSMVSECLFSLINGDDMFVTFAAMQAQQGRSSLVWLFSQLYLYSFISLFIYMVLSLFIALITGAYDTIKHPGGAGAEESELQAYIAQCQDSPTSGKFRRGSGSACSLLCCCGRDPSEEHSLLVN
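Tet-induced TRPML1-DL cells, 1,500 per well, cultured overnight, were loaded with a no-wash Ca2+ dye for 45–90 min. Calcium fluorescence was recorded on the FDSS for 110 s after compound addition, before the EC80 agonist (4 uM 54-4) was added.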
gsp antagonist = antagonizes gsp, the McCune-Albright syndrome mutation | gsp-mutant cells, cAMP HTRF, 30 min; control for the full effect not named in the record | Potency, µM (top dose mostly 76.9 µM), without a hit: at the top dose activity change, negative = inhibition, most hits filed as inhibitors | 340,000 tested, 0.4% active | AID 624288; active = falling curve of any shape with a large fitted effect; inconclusive = falling curve, mostly with a smaller effect; inactive = flat or rising curve; cell line not stated here;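 note: intracellular cAMP measured with PDE inhibitor Ro 20-1724 present during compound exposure; potency is the fitted concentration of half-maximal effect; % is set by controls: 0 for no effect and ±100 for the full control effect; nearly all actives have a fitted effect of over 65% in size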
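Measurement of cellular cAMP by homogeneous time-resolved fluorescence following a 30 min compound exposure at 37C. The PDE inhibitor […] was present throughout; the assay buffer was DPBS with 0.05% BSA and 0.005% Tween 20.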
TRPML1 inh = blocks the human TRPML1 channel; activity change, negative = inhibition, % (no concentration beside the values); 390,000 tested, 0.02% active; TRPML1-inducible cells, Ca2+ dye fluorescence, FDSS; stronger effect = lower value; inhibition of EC80 agonist-evoked calcium signal; Q9GZU1; AID 624415; in the data active means activity change below about -50%; inconclusive means about -30% to -50%; inactive means above about -30%;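 note: stimulus is agonist 54-4 at its EC80 concentration; % is set by controls: 0 for no effect and ±100 for the full control effect; compound concentration not given in the record; the text of the record puts the active cut at -80%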
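TRPML1-DL cells, Tet-induced overnight (~16 h, 37 °C) at 1,500 cells/well, were loaded with Ca8 no-wash dye plus quencher for 45-90 min at room temperature. Compounds were pinned during FDSS kinetic reading; agonist 54-4 at EC80 (4 uM final) then added.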
gsp agonist = activates gsp, the McCune-Albright syndrome mutation. gsp mutant cells, cAMP HTRF, 30 min; control for the full effect not named in the record. Potency, µM (top dose mostly 76.9 µM), inactives show at the highest dose activation (cAMP increase), most hits filed as activators. 340,000 tested, 0.13% active; active = well fitted activation curve with a large enough effect; inconclusive = small, poorly fitted or top-dose-only effect, or another doubt; inactive = no such curve, though single readings can be large or run the other way; cell line not stated here;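 note: phosphodiesterase inhibitor Ro 20-1724 added with compounds to block cAMP breakdown; potency is the fitted concentration of half-maximal effect; nearly all actives have a fitted effect of over 60% in size; about a fifth of the inactives were tested at one dose only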
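Cells stably selected in G418 were plated at 2000/well, grown 16-24 hr, then given compounds in DMSO with the PDE inhibitor […] (300 uM solution added) for 30 min at 37C; cAMP was read by HTRF.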
Menin-MLL FL inh = inhibitors of human menin-MLL interaction, wild-type MLL peptide; Fluorescence polarization, fluorescein-MLL peptide displacement from menin; FP activity change, % at 61.4 µM; 290,000 tested, under 10 active; AID 1766; inconclusive = falling polarisation curve, or a change in total fluorescence; inactive = total fluorescence flat and polarisation flat or rising; no compound was filed as active; the % refers to the polarisation; negative = inhibition;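 note: % of control where 0% means no effect; inhibitors lower the polarisation; unlabelled MLL peptide was the positive control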
An asterisk follows results filed as active; ? = inconclusive; / = no result given; [ ] = another dose, or the depositor's remark.

mol | ClpP mod | TRPML1 agonist | gsp antagonist | TRPML1 inh | gsp agonist | Menin-MLL FL inh
COc1ccccc1C(=O)NCC(=O)OC(C)C(=O)N(C)C1CCCCC1 (stereo unspecified) | -4.4% | -0.8 | 4% | -11 | 8% | /
COc1ccc(NC(=O)Cn2cc(S(=O)(=O)c3ccccc3)c(=O)c3cc(C)ccc32)cc1Cl | -9.0% | 0.9 | / | 17 | / | /
O=C(CSc1cn(Cc2ccccc2)c2ccccc12)N1CCOCC1 | -1.7% | 0.0 | -6% | 10 | -45% | 5.3
COc1cc(NS(=O)(=O)c2ccc(NC(=O)NC3CCCCC3)cc2)nc(OC)n1 | 1.7% | -0.5 | -2% | 22 | 1% | 4.8
CCOc1ccc(Br)cc1S(=O)(=O)Nc1ccc(C(=O)OC(C)C(=O)N(C)c2ccccc2)cc1 (stereo unspecified) | -1.2% | -0.5 | -26% | 0 | -19% | 4.0
COc1ccc(NS(=O)(=O)c2cccc(C(=O)N3CCN(C(=O)c4ccco4)CC3)c2)cc1 | 1.1% | -0.6 | -18% | -12 | -32%[inhibitor] | /
CCC(C)(C(=O)NC1CCCCC1)N(Cc1ccco1)C(=O)c1cnccn1 (stereo unspecified) | -1.6% | -1.1 | 5% | 6 | -24% | -2.1
O=C(Nc1ccon1)c1sc2cc(Cl)ccc2c1Cl | -1.3% | -0.5 | -19% | 5 | ? | /
COc1ccc(C(=O)CC(Sc2ccccc2N)c2ccc(OC)cc2)cc1 (stereo unspecified) | -4.5% | 0.0 | / | 2 | 12% | /
Cc1ccc(C(=O)CC2(O)C(=O)N(CCc3ccccc3)c3ccc(Cl)cc32)cc1 (stereo unspecified) | -8.3% | 1.6 | / | 13 | / | /
O=C(CN1C(=O)COc2ccc(S(=O)(=O)N3CCOCC3)cc21)N1CCN(c2ccccc2F)CC1 | -3.3% | 2.0 | / | -15 | / | /
CS/C(=C(/C#N)S(=O)(=O)c1ccc(Cl)cc1)N1CCOCC1 | -0.8% | 2.4 | 0% | 21 | -29% | 1.0

The list continues:
mol | ClpP mod | TRPML1 agonist | gsp antagonist | TRPML1 inh | gsp agonist | Menin-MLL FL inh
CCN(CC)S(=O)(=O)c1ccc(NC(=O)CSc2cccc[n+]2[O-])cc1 | -0.8% | -0.2 | 5% | 34 | 5% | 0.4
Cc1cc(C)n(CCOc2ccc(Br)cc2)n1 | -1.3% | 1.4 | 12% | -4 | -2% | -4.9
O=C(/C=C\c1ccco1)c1ccc(NC(=O)c2ccco2)cc1 | / | 0.7 | ? | 8 | ? | 21
CN(CC(=O)Nc1ccc(F)cc1)C(=O)COC(=O)c1nc(Cl)ccc1Cl | -3.3% | -0.4 | / | -2 | -59%[inhibitor] | /
Cc1ccc(NC(=O)C2CCN(c3ncnc4sc(C)c(C)c34)CC2)cc1S(=O)(=O)N(C)C | / | -0.7 | ? | 16 | 4%[15.4 µM] | /
COc1ccc(NC(=O)C2=C(C)Nc3c(C(=O)Nc4ccc(C)cc4)cnn3C2c2cccc(Cl)c2)cc1 (stereo unspecified) | -4.8% | 1.2 | / | 22 | / | /
CC(C)CCN(C(=O)c1cn2ccccc2n1)c1c(N)n(Cc2ccccc2)c(=O)[nH]c1=O | -28% | 0.0 | 1% | 14 | -43%[inhibitor] | /
C=CCn1c(SCC(=O)Nc2nncs2)nnc1-c1ccco1 | / | 0.6 | -6% | 19 | 2% | -0.1
Cn1c(N)c(C(=O)COC(=O)c2cc(C3CC3)nc3ccccc23)c(=O)n(Cc2ccccc2)c1=O | -19% | -0.3 | -21% | 0 | -1% | ?
O=C(NC1CCS(=O)(=O)C1)c1ccc(S(=O)(=O)NCC2CCCO2)cc1 (stereo unspecified) | -1.6% | -1.0 | 5% | 0 | -2% | 2.9
CC(C)N(C(=O)[C@H]1C[C@H](CC(=O)NCc2cccc(C(F)(F)F)c2)C(=O)N2CCc3c([nH]c4cc(CCC(=O)N(C)C)ccc34)[C@]12C)C(C)C | 1.9% | 2.1 | -20% | -6 | / | /
COc1cccc(C(=O)COC(=O)c2cc(-c3cccs3)nc3ccccc23)c1 | 4.2% | -0.5 | / | 29 | / | /

Additional records.
mol | ClpP mod | TRPML1 agonist | gsp antagonist | TRPML1 inh | gsp agonist | Menin-MLL FL inh
Cc1cc(C(=O)N2CCOCC2)c(C)o1 | -0.3% | -0.5 | 8% | -23 | 6% | -4.3
O=C(CCCCn1c(=O)c2ccccc2n(CC(=O)Nc2cccc(F)c2)c1=O)NCc1ccco1 | -16% | 1.0 | -2% | 27 | -33% | 6.3
Cc1ccc(OCc2ccc(-c3nc(C#N)c(N4CCC(C)CC4)o3)o2)cc1 | 4.2% | -0.4 | / | -8 | / | /
Cc1cc(NC(=O)/C=C\C(=O)O)c([N+](=O)[O-])cc1C | 0.8% | -0.6 | 2% | -4 | 9%[15.4 µM] | 1.3
COc1ccc(N2CCN(C(=O)Cn3ncc4c([nH]c5ccccc54)c3=O)CC2)cc1 | ? | 0.0 | -3% | -1 | 1% | -0.4
CCOCCCNC(=O)C1CCN(S(=O)(=O)N2CCCC2)CC1 | 0.7% | 0.1 | 6% | -17 | -2% | -5.3
CN(C)c1ncc(S(=O)(=O)c2ccccc2)c(-c2ccc(Cl)cc2Cl)n1 | -5.7% | 17 | -18% | 11 | 1% | 0.3
CC12CCC(C(=O)N(NC(=O)c3ccc(O)cc3)C1=O)C2(C)C (stereo unspecified) | -2.8% | 0.6 | -3% | 10 | -57%[inhibitor] | 2.7
CC(=O)c1n[nH]nc1Nc1nc(C)cc(C)n1 | -2.0% | 0.7 | -6% | -8 | 11% | 16
O=C(Cc1ccccc1)Nc1ccccc1C(=O)Nc1ccccc1 | 1.1% | 0.1 | 9% | 18 | 4% | 5.1
CCCc1noc2c1/C(=N\O)CC(CC(C)SCC)C2 (stereo unspecified) | -1.1% | 2.2 | -19% | 45 | -54%[inhibitor] | 0.9
COC(=O)NCC(c1ccco1)N1CCN(c2ccc(OC)cc2)CC1 (stereo unspecified) | -2.3% | / | 8% | / | -21% | -0.5

Other structures:
mol | ClpP mod | TRPML1 agonist | gsp antagonist | TRPML1 inh | gsp agonist | Menin-MLL FL inh
CNc1ccc2c3c(cccc13)C(=O)N(C)C2=O | -0.5% | 78* | -17% | -13 | ? | ?
CCc1ccccc1N1CCN(S(=O)(=O)c2cc(OC)ccc2OC)CC1 | -12% | 2.7 | -14% | 18 | -35%[inhibitor] | 4.2
Cc1ccc(CNC(=O)c2ccc(OCC3CCCO3)cc2)cc1 (stereo unspecified) | 3.9% | 0.0 | 15% | -17 | -8% | 4.0
CCOc1ccc(NC(=O)NCCCN2CCCC2)cc1 | -1.3% | 0.5 | 9% | -10 | -27% | 2.5
Cc1cnc(C(=O)OCC(=O)Nc2ccc(Cl)cc2)cn1 | -3.0% | -0.5 | 1% | 1 | 4% | 1.1
CCOC(=O)c1ccc(NC(=O)c2cccnc2)cc1 | -1.9% | -0.8 | 1% | 56 | -6%[15.4 µM] | -2.5
C/C(=N\Nc1ccc(Cl)c(C(=O)O)c1)c1cccc([N+](=O)[O-])c1 | 1.4% | 0.5 | 7% | -17 | -8% | 4.6
C=CCNC(=O)/C(C#N)=C/c1ccccc1Cl | / | 0.7 | 1% | 6 | -1%[15.4 µM] | -1.9
Cc1cccc(C)c1NC(=O)Cn1nnc(C(=O)Nc2ccc(F)cc2F)c1N | -1.0% | 1.1 | 10% | 13 | ? | 1.5
O=C(CCSc1ccc(Cl)cc1)N1CCN(c2ncccn2)CC1 | -7.8% | 0.1 | ? | -3 | -4% | 3.1
CCOC(=O)N1CCc2c(sc3c2c(=O)n(-c2ccc(CC)cc2)c(=O)n3Cc2cc(C)ccc2C)C1 | -2.0% | 0.4 | / | -11 | / | /
CC(C)CN(CCC(=O)O)CC(C)C | 3.6% | -0.2 | 5% | 6 | -21% | -1.2

Further entries.
mol | ClpP mod | TRPML1 agonist | gsp antagonist | TRPML1 inh | gsp agonist | Menin-MLL FL inh
CCOC(=O)c1ccc(NC2c3ncccc3C(=O)N2Cc2ccc(F)cc2)cc1 (stereo unspecified) | 1.0% | 1.5 | -10% | 5 | 13% | 3.4
CCn1c(SCC#N)nc2cc(S(=O)(=O)N3CCOCC3)ccc21 | -6.4% | 1.6 | 8% | -10 | -3% | /
O=C(O)CNC(=O)CC1S/C(=N/N=C2/NC(=O)CS2)NC1=O (stereo unspecified) | / | 1.7 | 3% | -1 | 10%[15.4 µM] | ?
CCSc1nc2n(n1)C(c1ccc(Cl)cc1Cl)C(C(=O)Nc1ccccc1C)=C(C)N2 (stereo unspecified) | 1.5% | 1.3 | / | 7 | / | /
COc1ccc(C2CC(Cn3cc(C#N)c(=O)n(C)c3=O)ON2C)cc1 (stereo unspecified) | / | 0.7 | 7% | 6 | -51%[inhibitor] | -3.6
Cc1ccc(C(=O)NC(=S)NCc2cccnc2)cc1 | 0.8% | 1.0 | ? | ? | 27% | -6.8
C=Cn1cc[n+](CC(=O)c2cccs2)c1 | 0.8% | -0.9 | 2% | 7 | -12% | 4.1
COc1ccc(NC(=O)CCN2CCN(c3cccc(Cl)c3)CC2)cc1 | -11% | 1.0 | / | -9 | / | /
COc1ccccc1Cn1cc(C(=O)c2ccccc2)c(=O)c2cc(OC)c(OC)cc21 | 1.8% | 1.4 | / | -16 | / | /
COc1ccccc1NC1=Nc2cccc3cccc1c23 | / | 0.8 | -4% | 6 | -24%[15.4 µM] | 7.1
N/C(=N\OC(=O)CCCOc1ccccc1)c1ccccc1 | 0.5% | 4.4 | -5% | -15 | 14% | 1.4
Nc1ccc(Cl)c(NC(=O)c2cccs2)c1 | -2.0% | -0.9 | -5% | 13 | 0% | 0.3

Additional entries:
mol | ClpP mod | TRPML1 agonist | gsp antagonist | TRPML1 inh | gsp agonist | Menin-MLL FL inh
Brc1ccc(-c2nc(-c3cccnc3)no2)o1 | -6.3% | 0.0 | -6% | 33 | 1% | -1.3
COc1ccc(C(=O)N/C(=C\c2ccc3c(c2)OCO3)C(=O)N2CCOCC2)cc1 | / | 0.0 | -3% | -1 | 1% | 4.3
CC(C)(C)Nc1nc(Cl)nc(NC2CCCCC2)n1 | 0.3% | -0.5 | 12% | -7 | -5%[15.4 µM] | 3.7
CCN(CC(=O)Nc1ccc(NC(C)=O)cc1)C(=O)c1ccc2c(c1)OCO2 | 1.0% | 0.4 | 8% | -7 | ? | /
CCOC(=O)c1c(NC(=O)CC2SC(N)=NC2=O)sc2c1CCCC2 (stereo unspecified) | -5.1% | 0.2 | 8% | 19 | 2% | 7.8
COc1cccc(CNc2cnc3ccccc3c2)c1O | ? | 0.3 | ? | -12 | 8% | 2.2
CCOc1ccc(NS(=O)(=O)c2ccc(C(=O)NNC(=O)c3ccccc3O)cc2)cc1 | / | 8.4 | -19% | 4 | -21%[15.4 µM] | /

Screening results from PubChem.
